Screens: PubChem, National Center for Advancing Translational Sciences (NCATS)
Menin MLL FP FL: qHTS Assay for Inhibitors Targeting the Menin-MLL Interaction in MLL Related Leukemias: Competition With Fluorescein Labeled MLL-derived Peptide. FP activity change, % at 61.4 µM. Fluorescence polarization, fluorescein-MLL peptide displacement from menin. AID 1766, 2009. 290,000 tested, under 10 active; inconclusive = falling polarisation curve, or a change in total fluorescence; inactive = total fluorescence flat and polarisation flat or rising; no compound was filed as active; the % refers to the polarisation; negative = inhibition;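 further: % of control where 0% means no effect; inhibitors lower the polarisation; unlabelled MLL peptide was the positive control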
gsp antag: qHTS for Antagonists of gsp, the Etiologic Mutation Responsible for Fibrous Dysplasia/McCune-Albright Syndrome: qHTS; gsp-mutant cells, cAMP HTRF, 30 min; control for the full effect not named in the record; Potency, µM (titrated, usually from 76.9 µM), for the others: at the top dose activity change, negative = inhibition, hits mostly inhibitors; AID 624288, 2012; actives 0.4% (n = 340,000); active = falling curve of any shape with a large fitted effect; inconclusive = falling curve, mostly with a smaller effect; inactive = flat or rising curve; cell line not stated here;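 further: intracellular cAMP measured with PDE inhibitor Ro 20-1724 present during compound exposure; potency means the concentration at half of the fitted maximal effect; on the % scale 0 is the no-effect control and ±100 the full control effect; nearly all actives have a fitted effect of over 65% in size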
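G418-selected cells were plated in DMEM/10% FBS for 16-24 h at 37C, then treated with compounds plus the PDE inhibitor […] (300 uM solution added) for 30 min at 37C. Intracellular cAMP was measured by HTRF after 30 min lysis at room temperature.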
gsp agonist: qHTS for Agonist of gsp, the Etiologic Mutation Responsible for Fibrous Dysplasia/McCune-Albright Syndrome: qHTS. gsp mutant cells, cAMP HTRF, 30 min; control for the full effect not named in the record. Potency, µM (series often up to 76.9 µM), for inactives: top-dose activation (cAMP increase), most hits filed as activators. actives 0.13% (n = 340,000); active = well fitted activation curve with a large enough effect; inconclusive = small, poorly fitted or top-dose-only effect, or another doubt; inactive = no such curve, though single readings can be large or run the other way; cell line not stated here;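 further: phosphodiesterase inhibitor Ro 20-1724 added with compounds to block cAMP breakdown; potency means the concentration at half of the fitted maximal effect; nearly all actives have a fitted effect of over 60% in size; about a fifth of the inactives were tested at one dose only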
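Cells stably selected in G418 were plated at 2000/well, grown 16-24 hr, then given compounds in DMSO with the PDE inhibitor […] (300 uM solution added) for 30 min at 37C; cAMP was read by HTRF.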
TRPML1 inh: qHTS for Inhibitors of the Human Mucolipin Transient Receptor Potential 1 (TRPML1); Mucolipin-1 (Homo sapiens), Q9GZU1; TRPML1-inducible cells, Ca2+ dye fluorescence, FDSS; hits give low values; inhibition of EC80 agonist-evoked calcium signal; activity change, negative = inhibition, % (test concentration not listed); actives 0.02% (n = 390,000); AID 624415, 2012; in the data active means activity change below about -50%; inconclusive means about -30% to -50%; inactive means above about -30%;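 further: stimulus is agonist 54-4 at its EC80 concentration; on the % scale 0 is the no-effect control and ±100 the full control effect; compound concentration not given in the record; the text of the record puts the active cut at -80%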
Target sequence (Q9GZU1 whole entry, looked up): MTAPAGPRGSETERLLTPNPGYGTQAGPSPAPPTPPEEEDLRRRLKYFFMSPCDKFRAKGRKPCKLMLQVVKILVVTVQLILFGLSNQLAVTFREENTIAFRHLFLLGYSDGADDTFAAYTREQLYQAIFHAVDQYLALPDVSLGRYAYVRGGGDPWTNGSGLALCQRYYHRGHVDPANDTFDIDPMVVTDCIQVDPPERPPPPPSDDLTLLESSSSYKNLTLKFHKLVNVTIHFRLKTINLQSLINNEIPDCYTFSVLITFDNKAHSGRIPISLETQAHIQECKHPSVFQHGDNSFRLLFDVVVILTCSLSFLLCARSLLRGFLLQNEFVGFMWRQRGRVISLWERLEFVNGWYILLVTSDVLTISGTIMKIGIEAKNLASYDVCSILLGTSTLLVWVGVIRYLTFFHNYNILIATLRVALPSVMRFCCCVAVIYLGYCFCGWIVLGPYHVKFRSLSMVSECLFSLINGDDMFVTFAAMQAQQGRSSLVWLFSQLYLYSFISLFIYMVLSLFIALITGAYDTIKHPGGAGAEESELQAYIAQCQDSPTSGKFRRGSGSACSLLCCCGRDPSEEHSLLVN
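Calcium fluorescence in TRPML1-DL cells induced overnight with Tet: a 110 s read after compound pin addition, then a 110 s antagonist read after challenge with 54-4 at 4 uM final (EC80).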
TRPV1 potentiator: HTS Assay for Compounds that Act as Potentiators of the Vanilloid Receptor 1. Transient receptor potential cation channel subfamily V member 1 (Homo sapiens), Q8NER1. TRPV1-expressing cells, Fluo-8 calcium influx, capsaicin EC20 potentiation; host cell line not named in the record; control for the full effect not named in the record. potentiation, % at 8.33 µM. actives 0.02% (n = 320,000). AID 540277, 2011; active means potentiation above 80%; inconclusive means 30% to 80%; inactive means below 30%; further: 0% is about no effect
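Fluo-8 calcium influx in TRPV1-expressing cells, kinetic read (ex 480/em 520 nm). Compound added and read 3 min for agonist activity, followed by capsaicin at EC20 final and 2 min further read for enhancement.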
Sfp PPTase inh: qHTS Assay for Inhibitors of Bacillus subtilis Sfp phosphopantetheinyl transferase (PPTase); Biochemical Sfp PPTase activity, qHTS; Potency, µM, for inactives: max response, negative = inhibition, actives largely listed as inhibitors; actives 3.5% (n = 310,000); AID 1490, 2009; active means well fitted inhibition curve with a large enough effect; inconclusive means small, poorly fitted or top-dose-only effect, or another doubt; inactive means no such curve, though single readings can be large or run the other way;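 further: the enzyme is Sfp with the accession as filed and its product quenches rhodamine fluorescence; potency means the concentration at half of the fitted maximal effect; 0% = enzyme reaction without inhibitor and -100% = no enzyme wells; top concentration of the series not given in the record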
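Sfp 15 nM + cpd, 15 min RT; start w/ rhodamine-CoA 5 uM, BHQ-2-YbbR 12.5 uM (final); 50 mM Hepes pH 7.6, 10 mM MgCl2, 0.01% NP-40, 0.01% BSA; read 525/598 nm at 0 and 30 min.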
ClpP mod: qHTS Assay for Activators of ClpP | ATP-dependent Clp protease proteolytic subunit (Bacillus subtilis (strain 168)), P80244 | actives 1.9% (n = 340,000) | Potency, µM (series often up to 57.5 µM), without a hit: at the top dose activity change, negative = active | purified B. subtilis ClpP, FRET peptide cleavage, 20 min; active = well fitted falling curve with a large enough effect; inconclusive = small, poorly fitted or top-dose-only effect; inactive = no such curve, though single readings can be large or run the other way; further: potency means the concentration at half of the fitted maximal effect; the source files actives as falling curves though it sought activators and does not explain the sign; nearly all actives have a fitted effect of over 65% in size; many hits overshoot -100%
Target sequence (P80244 whole entry, looked up): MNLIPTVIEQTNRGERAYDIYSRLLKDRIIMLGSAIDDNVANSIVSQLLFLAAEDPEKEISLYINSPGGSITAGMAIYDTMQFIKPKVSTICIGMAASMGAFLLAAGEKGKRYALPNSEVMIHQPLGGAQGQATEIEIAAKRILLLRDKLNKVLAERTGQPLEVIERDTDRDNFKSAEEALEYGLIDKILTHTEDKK
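Purified B. subtilis ClpP, 10 microg/mL final in Tris/HCl pH8 with KCl, BSA, glycerol and Tween-20, cleaved an Abz/nitrotyrosine-quenched decapeptide. Fluorescence (ex 320, em 430) was read at 0 and 20 min at room temperature. Delta was normalized to 5.8 microM ADEP and DMSO/no-enzyme controls.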
The depositor's hits bear a star; u = inconclusive; x = no result given; & = joins results of further samples; [ ] = remark or other dose.

SMILES | Menin MLL FP FL | gsp antag | gsp agonist | TRPML1 inh | TRPV1 potentiator | Sfp PPTase inh | ClpP mod
Cc1ccc(S(=O)(=O)Nc2cc(Cl)c(O)cc2C)cc1 | 2.0 | -20% | -21% | -1 | u | 3% | -2.7%
O=C(CNC(=O)c1ccccc1)NC1(C(=O)NC2CCCCC2)CCCCC1 | 4.8 | 6% | 13%[15.4 µM] | 0 | 1 | 20% | -3.3%
COc1ccc(S(=O)(=O)NCc2ccccn2)c(Cl)c1Cl | 2.3 | 11% | 1% | -14 | 5 | 3% | -0.8%
COc1ccc(S(=O)(=O)N(CC(=O)NCc2ccco2)c2ccccc2)cc1 | 1.5 | 2% | -3% | -1 | -5 | 4% | -0.2%
Cc1cccc(NC(=O)CSCC(=O)N(C)Cc2c(F)cccc2Cl)c1 | x | -28% | -7% | 8 | -2 | x | 1.2%
Cc1nc2cc(NC(=O)c3ccc([N+](=O)[O-])s3)ccc2s1 | x | -10% | -5%[15.4 µM] | 16 | 17 | 0% | 0.3%
COc1ccc(C(=O)Nn2c(SCC(=O)N3CCC(C)CC3)nc3ccccc3c2=O)cc1 | 10 | -7% | -4% | 3 | -5 | 20% | u
Cc1cc2c(cc1C)N(C(=O)CSc1nncn1C)C(C)(C)c1ssc(=S)c1-2 | 4.1 | 5% | -1% | -5 | -10 | -13% | 0.3%
Cc1ccc(S(=O)(=O)N2CCN(C(=O)c3ccc([N+](=O)[O-])cc3)C2)cc1 | -2.8 | 2% | u | 0 | 4 | 11% | 1.1%
COc1ccc(NC(=O)C(=O)NCC(=O)Nc2cccc(C(F)(F)F)c2)cc1 | -0.8 | -27% | 35%[15.4 µM] | -11 | 6 | 10% | 0.7%
Cc1cc(-c2ccc(S(=O)(=O)N(C)Cc3ccccc3)cc2)on1 | 3.4 | 0% | u | u | -16 | 4% | 2.4%
COc1cc2nc(CN3CCN(S(=O)(=O)c4ccccc4[N+](=O)[O-])CC3)[nH]c(=O)c2cc1OC | x | x | -50%[inhibitor] | -7 | x | x | -1.1%
CCC(CO)NCc1sccc1C (stereo not given) | -6.9 | 14% | 22% | -1 | -8 | 6% | 0.1%
CCSc1nnc(-c2ccccc2NC(=O)CC)c(=O)[nH]1 | 3.9 | -1% | 16%[15.4 µM] | 30 | 14 | -9% | -2.0%
CCCNC(=O)CCn1c(-c2ccc(C)cc2)cc(C(=O)OCC)c1C | 1.1 | -14% | -35%[inhibitor] | 9 | -11 | 10% | -0.3%
CC(c1ccc2ccccc2c1)c1ccccc1C(=O)O (stereo not given) | x | x | 10% | 6 | x | x | 0.2%
Cc1ccc(S(=O)(=O)NCC(=O)N(CC2CCCO2)C(C(=O)NC2CCCCC2)C(C)C)cc1 (stereo not given) | 0.4 | 6% | 4%[15.4 µM] | -8 | -9 | 15% | x
Nc1nc(NCc2ccco2)nc(N2CCCC2)c1[N+](=O)[O-] | 3.3 | 11% | 4%[15.4 µM] | 8 | 7 | 5% | x
O=C(NC1CCCN(c2ccc(C(F)(F)F)cn2)C1)c1ccnc(Cl)c1 (stereo not given) | 2.9 | 2% | -5% | -7 | -7 | -5% | -4.9%
CCC(C)(O)c1[nH]c2ccc(C(=O)OC)cc2c1C (stereo not given) | -0.1 | 9% | x | -14 | -2 | 1% | -2.7%
COC(=O)Cn1c(C)c(/C=C/c2cc[n+](C)cc2)c2ccccc21 | u | u | 9% | -7 | -7 | 3% | 0.8%
CC12CCC(C(=O)NNC(=O)c3ccc(F)cc3)(OC1=O)C2(C)C (stereo not given) | x | 15% | 3%[15.4 µM] | -2 | -1 | 7% | -0.4%
Cn1nnnc1SCCNCc1ccccc1OCc1ccc(Cl)cc1Cl | x | x | x | -13 | -19 | x | 0.2%
COc1ccc(C(=O)c2ccccc2Cl)cc1OC | -6.9 | 3% | 10%[15.4 µM] | -12 | 5 | 13% | x
CCn1c(=O)[nH]c(=O)c2c(N)c(C(=O)c3cc(F)ccc3F)sc21 | 0.9 | 22% | 16%[15.4 µM] | u | -1 | 19% | x
Cc1ccc2[nH]c(=O)c(CN(c3cccc(C)c3C)S(=O)(=O)c3ccccc3)cc2c1 | x | -2% | u | 28 | -2 | 14% | -9.1%
COc1ccc(/C=C(\C#N)C(=O)OCC(=O)Nc2c(C)cccc2C)cc1 | 8.2 | -8% | 9% | 20 | 0 | -3% | -10%
O=C(Nc1ccccc1N1CCCCC1)c1cc(S(=O)(=O)N2CCOCC2)ccc1Cl | x | -9% | -16% | -3 | -5 | x | -4.2%
Cc1cccc(N2C(=O)c3cccc4c(N5CCCCC5)c([N+](=O)[O-])cc(c34)C2=O)c1C | 0.3 | 4% | -2% | 16 | -44 | 2% | 3.7%
O=[N+]([O-])c1nc2ccccc2[nH]1 | x | 5% | -3% | -22 | x | x | -11%
O=C(NC1=C(Nc2ccc(F)cc2)C(=O)c2ccccc2C1=O)c1ccc(Cl)cc1 | 0.1 | -23% | -36%[inhibitor] | -12 | -14 | -2% | 1.2%
CCCCNC(=O)c1cc(C)nn1-c1ccccc1 | -3.6 | 9% | 13% | -3 | -7 | 11% | x
O=C(NCCCCc1ccccc1)c1ccc(Br)o1 | -4.1 | -17% | -14% | -8 | 15 | 1% | -3.3%
COc1ccc(OCC(=O)Nc2ccc(S(=O)(=O)Nc3cc(C)nc(C)n3)cc2)cc1 | 3.2 | -11% | -42%[inhibitor] | 3 | 9 | -2% | 2.2%
Cc1nn(-c2ccccc2)c(Cl)c1/C=N/NC(=O)OC(C)(C)C | 3.1 | -26% | 1% | -1 | 3 | 28% | -1.4%
CC1CN(C(=O)c2cccs2)CC(C)O1 (stereo not given) | -2.2 | 13% | -53%[inhibitor] | 6 | -3 | 10% | 1.0%
CCOP(=O)(OCC)C(Nc1ccc([N+](=O)[O-])cc1)c1ccc(Cl)cc1 (stereo not given) | 2.3 | -13% | -43%[inhibitor] | -8 | -5 | 7% | -0.6%
CCCOC(=O)C1NC(=O)N2C(C(=O)OCCC)C(C)(C)S[C@H]12 (stereo not given in full) | x | 5% | -28% | -15 | x | x | -2.7%&-0.2%
COc1ccc(C(=O)Nc2ccc(NS(=O)(=O)c3ccccc3)cc2)cc1OC | 0.8 | u | 6%[15.4 µM] | -14 | 0 | -11% | x
Cc1ccc(C)c2[nH]c(=O)c(CCNC(=O)Cc3cccs3)cc12 | -1.1 | -23% | u | 17 | 12 | 7% | u
CCN(CC(=O)NCc1cccs1)C(=O)COc1cccc(C(F)(F)F)c1 | x | 2% | 9% | -8 | -5 | x | -0.8%
Cc1nnc2c(-c3ccccc3)nc3ccccc3n12 | 2.5 | 5% | 11% | 4 | -3 | 12% | u
COC(=O)c1ccc(NC(=O)CSc2nncn2C)cc1 | 2.0 | 3% | 28% | 21 | -26 | 11% | -0.4%
CCOc1ccc(NC(=O)N2CCC(n3nnc4ccccc43)CC2)cc1 | 0.4 | -14% | 3% | 0 | 1 | -2% | x
COc1cccc2c1Oc1ncccc1N(C(=O)CCC(=O)NCc1ccccc1)C2 | -0.6 | -4% | 15% | 0 | 2 | 12% | -1.1%
Cc1ccc(C(C)NC(=O)c2cccnc2)cc1 (stereo not given) | x | 8% | 1% | 5 | x | x | x
CN(C(=O)CSc1nc(O)cc(=O)n1C1CCCC1)c1ccccc1 | 9.5 | u | -34%[15.4 µM] | 6 | 8 | -23% | x
CC(C)CC(=O)N1CCN(CC2CC=CCC2)CC1 (stereo not given) | -1.5 | -11% | 19% | -5 | -1 | -25% | -1.6%
COc1cc(NC(=O)N2c3ccccc3Sc3ccccc32)c(C(=O)O)cc1OC | -2.0 | -10% | -32%[inhibitor] | 17 | 3 | 1% | 4.6%
Cc1ccc(OCC(=O)N/N=C\c2ccco2)c(C)c1 | -0.3 | 9% | -45% | -6 | -2 | 18% | -0.3%
O=C(NCc1ccccc1)N1CCC(n2cnc3cc(F)ccc32)CC1 | -0.6 | -11% | -13% | 17 | -26 | 5% | -0.6%
CC1CC1C(=O)OCC(=O)NNC(=O)c1ccc([N+](=O)[O-])cc1 (stereo not given) | x | -3% | 1% | 4 | -4 | x | 0.2%
CC(C)[C@H]1CN=C2N(C[C@H](C)NC(=O)CCC3CCCCC3)[C@H](Cc3ccc(O)cc3)CN21 | 3.2 | 10% | x | 1 | 18 | 50µM* | -1.8%
CCOC(=O)c1sc(NC(=O)Cc2c(F)cccc2Cl)nc1C | 0.8 | -4% | -11%[15.4 µM] | -2 | -29 | -17% | x
Cc1cc(S(=O)(=O)N2CCc3ccccc3C2)ccc1F | 6.0 | 2% | -4%[15.4 µM] | -23 | 9 | 18% | 1.0%
COc1cc(CC(NC(C)=O)C(=O)NC2CCN(C(=O)C3CC3)CC2)cc(OC)c1 (stereo not given) | -1.1 | 8% | 3% | -8 | -3 | 20% | -1.3%
Cc1nc2ccccc2c2oc(C(=O)N3CC(C)CC(C)C3)cc12 (stereo not given) | 1.3 | 2% | -1% | 19 | 23 | -5% | -2.1%
CS(=O)(=O)N1CCN(C(=O)Cc2ccc([N+](=O)[O-])cc2)CC1 | -0.1 | 5% | u | 12 | 1 | 4% | -0.6%
CCOC(=O)C1CCN(C(=O)CSc2cc(=O)n(CC)c3ccccc23)CC1 | -2.7 | -28% | u | -7 | 4 | 15% | u
